Assay outcomes as filed in PubChem BioAssay.
Beta cell apopt – beta cell apoptosis inhibition; AID 435005; actives 0.8% (n = 300,000); INS-1E cytokine-induced death, ATP luminescence, 48 h; percent of positive-control rescue, neutral wells zero; protection from apoptosis, % (concentration not given with the values);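 active means all replicates at 75% or more, or half of them and the mean; inconclusive means half reach 75% but not the mean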;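 further: 0% = cytokine-treated negative control wells and 100% = positive control rescue; higher means more ATP so stronger rescue from cytokine killing; wells of about 40 µL received 100 nL stock; the first replicate is given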
RanGTP-Impb inh – disruptors of Ran-importin-beta complex formation – biochemical, FRET, CFP-Ran, YFP-importin-beta, homogeneous, primary screen | actives 1.1% (n = 300,000) | AID 2216 | cell-free CFP-Ran/YFP-importin-beta FRET ratio | inhibition, % (test concentration not listed);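 active means most replicates above 15%; inconclusive means exactly half above 15%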;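 further: 0% = DMSO wells and 100% = Ran loaded with GDP instead of GTP; wells of about 40 µL received 100 nL stock; the first replicate is given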
A1 inh – inhibitors of the anti-apoptotic protein A1, read as caspase activation; MEF A1-2A-BIM cells, Caspase-Glo 3/7 luminescence, 3 h; percent of clofoctol response, vehicle zero; caspase activation, % (concentration not given with the values); actives 0.066% (n = 330,000); AID 2462;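 active means over half of replicate activation scores above 10%, or exactly half above 10 with the replicate mean above 10; inconclusive means replicate mean below 10 yet half the replicates above 10; inactive means over half of replicates below 10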;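 further: wells of about 30 µL received 50 nL stock; many hits fall short of the cut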
LANA-H2B inh – blocks KSHV LANA binding to histone H2A/H2B | Q9QR71 | cell-free LANA-H2A/H2B peptide, fluorescence polarization | inhibition, % (concentration not given with the values) | actives 0.6% (n = 320,000) | AID 2629; in the data active means inhibition mostly above about 10%, no sharp cut-off; inactive means mostly below about 6.7%;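 further: stock transfer was 7.5 nL into about 10 µL; 0% = median of vehicle wells and 100% = median of positive control wells; one replicate is shown; the record names a cut of 25% in any replicate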
AF4-AF9 inh – MLL-AF4/AF9 protein interaction inhibition; P42568; actives 0.47% (n = 350,000); AlphaScreen, biotin-AF4 peptide binding to FLAG-AF9; AID 651704; inhibition, % at 10 µM;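 active means every replicate reaching a set inhibition limit, whatever the replicate mean, cut at about 25% in these data; inconclusive means mean inhibition reaches that limit but some replicates miss it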;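 further: 0% = plate neutral control median and 100% = total signal loss; the record names both 10 and 1 µM as test concentration; the first replicate is given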
Target sequence (P42568 whole entry, looked up): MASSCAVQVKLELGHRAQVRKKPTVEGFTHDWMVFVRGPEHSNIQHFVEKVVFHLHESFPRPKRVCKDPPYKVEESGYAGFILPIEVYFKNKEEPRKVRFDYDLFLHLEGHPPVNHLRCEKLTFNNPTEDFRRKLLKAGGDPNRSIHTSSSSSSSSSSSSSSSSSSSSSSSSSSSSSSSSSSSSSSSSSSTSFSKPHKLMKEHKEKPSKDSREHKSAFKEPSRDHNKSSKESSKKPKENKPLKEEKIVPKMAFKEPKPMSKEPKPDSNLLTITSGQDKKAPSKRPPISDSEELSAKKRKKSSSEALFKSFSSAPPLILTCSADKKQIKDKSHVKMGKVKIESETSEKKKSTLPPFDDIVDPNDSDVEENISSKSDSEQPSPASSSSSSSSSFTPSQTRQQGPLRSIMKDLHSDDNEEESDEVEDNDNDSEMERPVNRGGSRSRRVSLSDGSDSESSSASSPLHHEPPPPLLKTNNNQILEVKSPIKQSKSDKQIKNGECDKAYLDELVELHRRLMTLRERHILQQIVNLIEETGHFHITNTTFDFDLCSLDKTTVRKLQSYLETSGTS
Calb FLC – C. albicans growth modulation with fluconazole; C. albicans CaCi-2 (fluconazole-resistant clinical isolate) + fluconazole, Alamar Blue growth, 48 h; growth inhibition, % (no concentration beside the values); actives 0.57% (n = 300,000);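 active means most replicates above 75%; inconclusive means exactly half above 75%; inactive means most below 75%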;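 further: all wells also contain fluconazole at 8 µg/ml as a sub-toxic cotreatment; 0% = median of DMSO wells and 100% = median of geldanamycin control wells; wells of about 8 µL received 7.5 nL stock; the first replicate is given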
T cruzi inh – T. cruzi replication inhibition. T. cruzi beta-gal in NIH3T3, luminescence, 90 h. inhibition, % (no concentration beside the values). actives 1.4% (n = 300,000). AID 1885;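 active means mean inhibition across valid replicates above about 55%, limit read from the data; inconclusive means mean below that limit but half or more replicates reach it; inactive means mean below it, under half of replicates reach it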;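 further: signal also drops with host cell toxicity which is not excluded here; 0% = plate median of DMSO wells and 100% = zero luminescence signal; higher percent means less beta-gal luminescence so fewer parasites; stock transfer was 50 nL into about 50 µL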
Vif A3G – inhibitors of Vif binding to APOBEC3G peptide, primary screen, biochemical, TR-FRET, GST-Vif 1-94, biotin-A3G peptide, dose response retest (AID 1117319) | TR-FRET GST-Vif / biotin-A3G peptide binding; higher % means a stronger effect; test concentration not given here; strong numbers were not always called active | inhibition, %; hits with a dose series show IC50 in µM | actives 0.57% (n = 260,000);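 active means above the screen mean plus three standard deviations and confirmed in dose response; inconclusive means results disagree or hit not tested in dose response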;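 further: Vif residues 1-94 fused to GST binding biotinylated APOBEC3G peptide 110-148; 0% = full assay without inhibitor and 100% = GST in place of GST-Vif; retest series ran down from 100 µM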
* hit, by the source's call; u = inconclusive; x = not tested or not shown; & = joins results of further samples.

SMILES | Beta cell apopt | RanGTP-Impb inh | A1 inh | LANA-H2B inh | AF4-AF9 inh | Calb FLC | T cruzi inh | Vif A3G
CC(C)c1nnc(NC(=O)CCC(=O)NC2CCCCCCC2)s1 | 0 | 5.5 | -0.6 | -6.9 | x | -11 | 6 | 3%
CC(C)N(C(=O)COC(=O)c1ccc(O)cc1)C(C)C | 2 | 0.1 | 0.8 | -0.4 | x | -12 | 5 | u
Cc1ccccc1OCC(=O)Nc1nnc(C2CCCC2)s1 | x | -1.4 | -1.3 | -2.0 | -2.3 | -1 | -3 | x
COc1ccc(OC)c(S(=O)(=O)Nc2cc(Cl)cc(Cl)c2)c1 | -2 | 5.7 | -1.0 | -0.5 | x | 13 | 18 | -2%
Fc1cccc(F)c1-n1c(CN2CCCC2)csc1=S | -13 | u | -0.3 | 33* | -2.7 | 1 | -4 | x
C=C(C)CN(CC)c1nc(N)c(C#N)c(CC#N)c1C#N | -1 | u | -0.4 | 4.2 | x | 2 | -3 | 23%
Cn1nc(C(=O)NNC(=O)c2ccc(Cl)c(S(N)(=O)=O)c2)c2ccccc2c1=O | 1 | x | -0.3 | -0.9 | -0.3 | x | x | -2%
Cc1cccc(S(=O)(=O)N2CN(Cc3ccco3)c3nc4ccccc4nc32)c1 | -13 | 7.0 | 1.4 | 3.4 | x | 12 | 21 | 29%
O=C(c1ccc2c(=O)n3c(nc2c1)CCCCC3)N1CCc2ccccc21 | -1 | 8.1 | -1.2 | 1.9 | -2.6 | -2 | 16 | -7%
COc1ccc(CN(C(=O)c2ccco2)C2CC(C)N(C)CC2C)cc1 (stereo not drawn) | 1 | 0.4 | 1.7 | -3.1 | x | -30 | 0 | 18%
Cc1cc(C)cc(N(CC(=O)NC2CC3CCC2C3)S(C)(=O)=O)c1 (stereo not drawn) | 3 | -4.8 | 0.6 | 0.6 | x | -5 | 6 | -3%
CSc1nc(O)c(C(c2ccc(OC(C)C)cc2)c2c(O)nc(SC)[nH]c2=O)c(=O)[nH]1 | x | 6.4 | -0.4 | 1.2 | -2.1 | -6 | -1 | x
CC(C)NC(=O)[C@]1(C)CCC[C@@]2(C)C3CC[C@@]4(C)C[C@]3(CCC21)CC4=O (stereo partly drawn) | 6 | x | 1.7 | -1.1 | -16 | x | x | x
CCCC[N+](CC#CCO)(CC#Cc1ccccc1)CCCC | 1 | -0.4 | -0.2 | -4.7 | 1.7 | -7 | -4 | x
C/C(=N\NC(=O)CSCc1ccc([N+](=O)[O-])cc1)c1cccc(Br)c1 | 4 | 4.1 | 0.7 | -2.1 | 1.0 | -2 | 5 | -8%
CC(=O)Nc1ccc(S(=O)(=O)NC(C)C(=O)NCCc2ccc(F)cc2)cc1 (stereo not drawn) | -4 | 1.6 | 0.0 | -0.9 | 0.2 | 13 | -1 | x
O=C(CN1C(=O)NC2(CCOc3ccccc32)C1=O)Nc1ccc(F)c(F)c1F (stereo not drawn) | -2 | -0.7 | 0.8 | 4.3 | 0.3 | 6 | 2 | x
C=CCN(CC=C)C(=O)c1ccc(OC2CCN(C(C)=O)CC2)c(OC)c1 | -7 | 1.8 | -0.2 | -1.0 | -2.2 | 1 | -7 | x
COc1ccc2[nH]cc(CCNC(=O)CS(=O)(=O)Cc3ccccc3)c2c1 | 0 | -1.0 | -1.3 | 0.1 | 1.3 | -2 | -3 | x
CCn1nc(NS(=O)(=O)c2ccccc2[N+](=O)[O-])c2cc3cccc(C)c3nc21 | 1 | -3.0 | -0.8 | 0.4 | -1.5 | 20 | 5 | -2%
CCC(Sc1nc(N)cc(=O)[nH]1)C(=O)NC(C(=O)OC)c1ccccc1 (stereo not drawn) | -6 | -3.6 | 0.4 | -1.4 | x | -7 | 1 | u
O=C(CCSc1nnc(-c2ccco2)o1)Nc1ccccc1 | -2 | 2.3 | 1.2 | -2.9 | x | -2 | -1 | 3%
Cc1cccn2cc(-c3ccc(F)cc3)cc12 | -4 | -8.5 | 1.2 | -1.1 | 2.0 | -4 | -4 | u
CCCN(CC(=O)Nc1ccc(Cl)cc1Cl)Cc1cc(=O)n2ccsc2n1 | -1 | 0.3 | 0.3 | -0.3 | -3.2 | 9 | 20 | 7%
COc1ccc(NC(=O)CSCC(=O)NC2(C)CCS(=O)(=O)C2)cc1 (stereo not drawn) | 0 | 3.1 | 0.7 | -0.3 | 0.7 | -7 | 0 | x
(list continues)
SMILES | Beta cell apopt | RanGTP-Impb inh | A1 inh | LANA-H2B inh | AF4-AF9 inh | Calb FLC | T cruzi inh | Vif A3G
Cc1ccc(CCNC(=O)c2cc(-c3ccncc3)nc3ccccc23)cc1 | 1 | 3.2 | -0.1 | 2.2 | 1.8 | 24 | 30 | 0%
COc1ccc(S(=O)(=O)c2c(O)c3ccc(C(=O)Nc4ccccc4Cl)cc3[nH]c2=O)cc1 | x | 1.0 | -0.8 | -1.1 | -0.6 | -3 | -7 | x
CC(C)(C)c1ccc(CCC2OCC(CN3CCOCC3)O2)cc1 (stereo not drawn) | 5 | 0.3 | -0.1 | 2.2 | x | -15 | 20 | 4%
CCN(Cc1ccccc1)C(c1cc2ccc(C)cc2[nH]c1=O)c1nnnn1CCOC (stereo not drawn) | -4 | -3.8 | -1.5 | -0.5 | x | u | -11 | u
Cc1ccc(OCc2nc(C#N)c(N3CCN(Cc4ccccc4)CC3)o2)cc1 | -5 | 1.4 | 0.0 | -0.6 | x | 9 | 15 | 2%
COc1ccc(NC(=O)CSc2ncccn2)cc1S(=O)(=O)N1CCCCC1 | -2 | x | -0.6 | 0.0 | 0.7 | x | x | -1%
CCc1cccc(CC)c1NC(=O)C1CC(=O)N(c2ccc3c(c2)OCCO3)C1 (stereo not drawn) | x | 8.6 | -0.2 | 0.6 | x | -6 | -4 | 8%
CSCCC(NS(=O)(=O)c1ccccc1F)C(=O)NCc1cccs1 (stereo not drawn) | -5 | x | -0.1 | -4.2 | 1.6 | x | x | 9%
COC(=O)c1cc(NCc2ccc3c(c2)OCO3)ccc1N1CCOCC1 | 2 | -0.6 | 0.4 | 3.4 | x | -4 | -6 | 20%
O=C1CN(C(=O)COC(=O)c2ccc[n+]([O-])c2)c2ccccc2N1 | -9 | 2.4 | -0.4 | -2.1 | -0.6 | -9 | 6 | x
O=C(CN1CCN(Cc2cccc(Cl)c2)C1=O)NCC1CCCO1 (stereo not drawn) | -1 | -3.4 | -0.6 | 4.1 | 0.5 | -3 | -13 | -1%
COc1ccccc1N1CCN(C(=O)c2ccccc2N(C)S(=O)(=O)c2ccc(C)cc2)CC1 | 4 | 0.5 | 0.5 | 1.5 | 5.0 | 5 | 40 | 6%
CCOCCCNS(=O)(=O)c1ccc(-n2cnnn2)c(OC)c1 | 0 | 1.8 | -0.2 | -2.4 | x | -9 | -23 | 7%
Cc1ccc2[nH]c(-c3cccc(N)c3)cc2c1 | -8 | -6.1 | -4.2 | -1.6 | x | 7 | 17 | 4%
CCc1ccc(/C=N\n2cnnc2)cc1 | -2 | -7.2 | -0.8 | -9.0 | -5.9 | -3 | 1 | 26%
Cc1c(C(=O)NCc2ccccn2)oc2ccc(Br)cc12 | -7 | -0.3 | 0.2 | 0.8 | -0.5 | 14 | 0 | -1%
CNC(=S)N(CCc1c(C)[nH]c2ccc(Cl)cc12)Cc1cccs1 | -5 | 9.7 | -0.1 | -2.1 | x | 2 | 60* | -4%
CCCCN(C(=O)Cc1ccc(S(=O)(=O)N2CCOCC2)s1)c1c(N)n(CCCC)c(=O)[nH]c1=O | -8 | 2.4 | 0.8 | 2.5 | -7.4 | 4 | 1 | 5%
COc1cccc(CN(C)Cc2nc(C3CC3)no2)c1 | -10 | 3.5 | 0.4 | 1.5 | -0.7 | -20 | 4 | x
Cc1c(NC(=S)SCc2ccccc2)c(=O)n(-c2ccccc2)n1C | x | -1.3 | -0.9 | 5.5 | 1.1 | -29 | -19 | -2%
Cc1ccc(NC(=O)C2OCCc3ccccc32)cc1Cl (stereo not drawn) | -5 | 2.5 | 0.0 | 0.9 | -0.5 | -15 | 7 | 2%
Cc1ccc2oc(C(=O)N3CCN(c4cccc(C)n4)CC3)c(C)c2c1 | -1 | 0.2 | -1.7 | -5.9 | -0.2 | 13 | -13 | -10%
Fc1ccccc1NC(=S)NCCc1ccccc1 | 6 | 0.2 | -0.2 | -3.8 | x | -5 | -10 | 0%
COc1ccc(-c2cnn3c4c(c(C)nc23)CCN4C(C)C)cc1OC | 1 | -1.8 | x | 2.9 | x | 53 | 11 | -8%
Cc1noc(C)c1NC(=O)N(C)C[C@H]1Oc2ccc(NS(=O)(=O)c3c(C)noc3C)cc2C(=O)N([C@H](C)CO)C[C@@H]1C | -3 | x | -1.1 | 4.7 | -5.7 | x | x | x
The listing continues.
SMILES | Beta cell apopt | RanGTP-Impb inh | A1 inh | LANA-H2B inh | AF4-AF9 inh | Calb FLC | T cruzi inh | Vif A3G
Cc1sc2nc(C(C)Sc3n[nH]c(N)n3)[nH]c(=O)c2c1C (stereo not drawn) | -1 | -3.5 | -0.1 | -1.2 | -13 | 5 | -2 | 5%
CCn1c(SCC(=O)NC2CCCC2)nnc1-c1cccnc1 | -6 | 9.1 | -0.3 | 3.1 | -0.2 | 8 | -5 | -1%
CCn1c(SCC(=O)N2CCC(C(N)=O)(N3CCCCC3)CC2)nnc1-c1ccccc1 | -1 | 0.3 | -0.8 | -5.1 | x | -2 | 4 | -1%&-9%
O=C1CC(Nc2ccc(N3CCOCC3)cc2)C(=O)N1C1CCCCC1 (stereo not drawn) | 1 | -3.4 | 2.6 | 2.3 | x | -5 | -1 | 2.7µM*
COc1ccc(CC(=O)NCc2nnc(SCc3ccc([N+](=O)[O-])cc3)n2C)cc1 | -2 | 0.8 | -0.2 | -3.9 | -5.8 | 2 | 0 | -1%
COc1ccc(C(=O)C2CCCN(Cc3ccc4nonc4c3)C2)cc1F (stereo not drawn) | 12 | -3.3 | -0.7 | -6.9 | 11 | 2 | 36 | x
O=C(NCCc1ccccc1)C1CCC(CNc2c(N3CCCCC3)c(=O)c2=O)CC1 (stereo not drawn) | 0 | 0.7 | 1.4 | 1.1 | 1.3 | -1 | -12 | x
Cc1ccc(NC(=O)CN(C)C(=O)C(Sc2ccccc2)c2ccccc2)cc1 (stereo not drawn) | -4 | x | -0.1 | 1.0 | 2.7 | x | x | -15%

Profiles as entered above. Order of values: Beta cell apopt | RanGTP-Impb inh | A1 inh | LANA-H2B inh | AF4-AF9 inh | Calb FLC | T cruzi inh | Vif A3G
O=C(NCCc1ccccc1)C1CCC(CNc2c(N3CCCCC3)c(=O)c2=O)CC1 (stereo not drawn) is entered as 0 | 0.7 | 1.4 | 1.1 | 1.3 | -1 | -12 | x
CCn1c(SCC(=O)N2CCC(C(N)=O)(N3CCCCC3)CC2)nnc1-c1ccccc1 is entered as -1 | 0.3 | -0.8 | -5.1 | x | -2 | 4 | -1%&-9%
CCn1c(SCC(=O)NC2CCCC2)nnc1-c1cccnc1 is entered as -6 | 9.1 | -0.3 | 3.1 | -0.2 | 8 | -5 | -1%
O=C1CC(Nc2ccc(N3CCOCC3)cc2)C(=O)N1C1CCCCC1 (stereo not drawn) is entered as 1 | -3.4 | 2.6 | 2.3 | x | -5 | -1 | 2.7µM*

Outcome played no part in choosing rows; any-hit rate near 4.3%.
